# Bioassay records (PubChem BioAssay)
# AF4-AF9 inh: blocks AF4 peptide binding to human AF9; P42568; AlphaScreen, biotin-AF4 peptide binding to FLAG-AF9; inhibition, % at 10 µM; 0.47% of 350,000 active; AID 651704;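 active = every replicate reaching a set inhibition limit, whatever the replicate mean, cut at about 25% in these data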;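 also: 0% = plate neutral control median and 100% = total signal loss; the record names both 10 and 1 µM as test concentration; the first replicate is given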
# Target sequence (P42568 whole entry, looked up): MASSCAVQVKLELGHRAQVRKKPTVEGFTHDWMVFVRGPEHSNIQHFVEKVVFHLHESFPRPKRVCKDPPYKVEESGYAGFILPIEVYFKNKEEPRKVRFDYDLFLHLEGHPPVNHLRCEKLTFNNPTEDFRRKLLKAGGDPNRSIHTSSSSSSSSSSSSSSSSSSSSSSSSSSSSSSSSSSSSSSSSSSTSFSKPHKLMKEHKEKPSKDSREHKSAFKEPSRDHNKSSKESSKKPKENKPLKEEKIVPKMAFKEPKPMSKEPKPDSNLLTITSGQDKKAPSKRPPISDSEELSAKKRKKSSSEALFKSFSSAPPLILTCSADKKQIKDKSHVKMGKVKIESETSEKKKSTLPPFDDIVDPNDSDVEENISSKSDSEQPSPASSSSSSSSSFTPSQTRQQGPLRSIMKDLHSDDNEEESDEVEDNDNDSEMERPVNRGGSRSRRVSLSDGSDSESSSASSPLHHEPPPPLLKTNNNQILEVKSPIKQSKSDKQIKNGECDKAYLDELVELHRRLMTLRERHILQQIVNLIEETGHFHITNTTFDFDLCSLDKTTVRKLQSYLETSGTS
# FGF22 binding: binders of recombinant human FGF22 by thermal shift; Q9HCT0; SYPRO orange fluorescence; percent of sucrose octasulfate shift, DMSO zero; calls only at 9.99 µM; 1.5% of 340,000 active; AID 651658;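 active = melting point raised past a set limit in the mean and every replicate; three in four hits are not shown here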
# Target sequence (Q9HCT0 whole entry, looked up): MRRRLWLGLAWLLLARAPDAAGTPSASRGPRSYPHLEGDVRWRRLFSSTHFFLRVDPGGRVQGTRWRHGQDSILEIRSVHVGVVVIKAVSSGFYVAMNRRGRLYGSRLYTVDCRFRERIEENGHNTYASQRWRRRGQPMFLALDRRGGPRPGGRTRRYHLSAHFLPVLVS
# The depositor's hits bear a star; i = inactive; + = active, no number. Only part of the results is shown. The share of hits here may be higher or lower than overall.
Molecule	AF4-AF9 inh	FGF22 binding
CC(C)CC#Cc1ccc([C@H]2[C@H](CO)N3C(=O)CN(C(=O)c4cccc(F)c4)C[C@@H]23)cc1	-1.5	i
CC=Cc1ccc2n(c1=O)C[C@@H]1[C@@H](CO)[C@H](C(=O)NCCC)N(C(=O)CC3CC3)[C@H]21 (mixture of isomers)	-1.4	i
O=C(NC[C@@H]1[C@@H](c2ccccc2)[C@@H](CO)N1Cc1ccccn1)C1CC1	-1.6	i
C[C@@H]1CN([C@@H](C)CO)C(=O)c2cccc(NC(=O)C3CCCCC3)c2O[C@@H]1CN(C)CC1CCCCC1	-0.7	i
CC(C)C#Cc1ccc2c(c1)O[C@H](CN(C)C(=O)c1cccc(F)c1)[C@@H](C)CN([C@H](C)CO)S2(=O)=O	-7.0	i
C[C@@H]1CN([C@H](C)CO)S(=O)(=O)c2ccc(Br)cc2O[C@@H]1CN(C)Cc1ccccc1	6.7	i
C[C@@H]1CN([C@H](C)CO)C(=O)c2cc(NC(=O)C3CCCCC3)ccc2O[C@H]1CN(C)Cc1ccncc1	-5.6	i
CCCC#Cc1ccc([C@@H]2[C@@H](CO)N(C(=O)C3CCOCC3)[C@H]2C#N)cc1	-0.9	i
O=C(Nc1ccc(Cl)cc1)N[C@H]1CC[C@@H](CCn2cc(-c3ccccc3F)nn2)O[C@@H]1CO	-1.0	i
CN1C(=O)c2cc(NS(C)(=O)=O)ccc2OC[C@H]2O[C@@H](CC(=O)NC3CCCCC3)CC[C@@H]21	-9.4	i

# Single records, as listed above. Order of screens: AF4-AF9 inh	FGF22 binding
# Listed for `C[C@@H]1CN([C@H](C)CO)S(=O)(=O)c2ccc(Br)cc2O[C@@H]1CN(C)Cc1ccccc1` : 6.7	i
# Listed for `C[C@@H]1CN([C@H](C)CO)C(=O)c2cc(NC(=O)C3CCCCC3)ccc2O[C@H]1CN(C)Cc1ccncc1` : -5.6	i
# Listed for `O=C(NC[C@@H]1[C@@H](c2ccccc2)[C@@H](CO)N1Cc1ccccn1)C1CC1` : -1.6	i

# (list continues)
Molecule	AF4-AF9 inh	FGF22 binding
CO[C@H]1CN(C)C(=O)c2ccc(NC(C)=O)cc2OC[C@@H](C)N(Cc2ccccc2C(=O)O)C[C@@H]1C	-1.3	i
CCC(=O)N(C)C[C@H]1Oc2cc(-c3ccc(C#N)cc3)ccc2S(=O)(=O)N([C@H](C)CO)C[C@H]1C	0.1	i
CC(C)NC(=O)N(C)C[C@H]1Oc2ccc(NS(=O)(=O)c3ccc(F)cc3)cc2C(=O)N([C@@H](C)CO)C[C@H]1C	0.9	i
COc1ccc(CN(C)C[C@H]2Oc3c(NC(=O)Nc4ccc5c(c4)OCO5)cccc3C(=O)N([C@H](C)CO)C[C@H]2C)cc1	0.4	i
C[C@H]1CN([C@@H](C)CO)C(=O)c2cc(-c3ccccc3)cnc2O[C@@H]1CN(C)C(=O)c1ccccn1	-1.2	i
COc1ccc(NC(=O)N(C)C[C@H]2OCc3cn(nn3)CCCC(=O)N([C@@H](C)CO)C[C@H]2C)cc1	-1.0	i
O=C(C[C@@H]1C=C[C@H](NC(=O)C2CC2)[C@H](CO)O1)NCc1ccccc1Cl	-0.5	i
CO[C@@H](CN(C)S(=O)(=O)c1ccc(C)cc1)[C@@H](C)CN([C@@H](C)CO)S(=O)(=O)c1cccc(Cl)c1	0.8	i
CC(C)NC(=O)N[C@H]1CC[C@@H](CC(=O)O)O[C@@H]1CO	-1.9	+
C[C@H]1CN([C@@H](C)CO)C(=O)Cc2cc(NC(=O)CCC(F)(F)F)ccc2O[C@H]1CN(C)C(=O)Nc1ccc2c(c1)OCO2	-2.5	i

# The list goes on:
Molecule	AF4-AF9 inh	FGF22 binding
Cc1cccc(-c2ccc([C@H]3[C@H]4CN(C(=O)NC(C)C)CCCCN4[C@H]3CO)cc2)c1	-4.4	i
CNC[C@@H]1Oc2cc(C#CC3CCCC3)ccc2S(=O)(=O)N([C@H](C)CO)C[C@H]1C	-6.7	i
COCC#Cc1ccc2c(c1)O[C@H](CN(C)C(=O)c1ccccc1)[C@H](C)CN([C@H](C)CO)S2(=O)=O	6.0	i
CCC(=O)Nc1ccc2c(c1)OC[C@@H](C)N(CC1CCOCC1)C[C@@H](C)[C@@H](OC)CN(C)C2=O	-2.2	i
CNC[C@@H]1Oc2ccc(NC(=O)Nc3ccccc3)cc2C(=O)N([C@@H](C)CO)C[C@@H]1C	1.4	i
C[C@@H]1CCCCO[C@@H](CN(C)Cc2ccc(C(F)(F)F)cc2)[C@H](C)CN([C@@H](C)CO)C(=O)c2cc(NC(=O)CCC(F)(F)F)ccc2O1	2.1	i
C[C@@H]1CN(S(=O)(=O)C(C)(C)C)[C@@H](CCO)/C1=C\CCO	-3.0	i
COCC(=O)N1[C@H](C#N)[C@H](c2ccccc2-c2ccccc2)[C@@H]1CO	-2.0	i
C[C@H](CO)N1C[C@H](C)[C@H](CN(C)S(=O)(=O)c2ccccc2)Oc2c(NC(=O)CCCCCC(=O)Nc3ccccc3N)cccc2C1=O	-2.3	i
C[C@@H]1CN([C@H](C)CO)C(=O)c2cc(NS(=O)(=O)c3cccs3)ccc2O[C@H]1CN(C)S(=O)(=O)c1ccccc1	-3.1	i

# The list goes on.
Molecule	AF4-AF9 inh	FGF22 binding
O=C(NCCN1CCCC1)[C@@H]1[C@@H](CO)[C@@H]2Cn3c(cccc3=O)[C@H]1N2C(=O)c1ccccc1	-1.3	i
CNC(=O)C[C@H]1CC[C@@H]2[C@@H](COc3ccc(NC(=O)NC4CCCC4)cc3C(=O)N2C)O1	0.8	i
CS(=O)(=O)Nc1ccc2c(c1)[C@H]1C[C@H](CC(=O)NCc3cccc(F)c3)O[C@H](CO)[C@H]1O2	-0.8	i
O=C(O)C[C@H]1CC[C@@H](NC(=O)Nc2cc(F)ccc2F)[C@H](CO)O1	-2.0	i
CC(C)C(=O)Nc1ccc2c(c1)C(=O)N(C)[C@@H]1CC[C@@H](CC(=O)NCc3ccc(F)cc3)O[C@H]1CO2	0.3	i
CCC(=O)N(C)C[C@@H]1Oc2ncc(C#Cc3ccccc3)cc2C(=O)N([C@H](C)CO)C[C@H]1C	0.6	i
COc1ccc(S(=O)(=O)Nc2ccc3c(c2)C(=O)N([C@@H](C)CO)C[C@@H](C)[C@H](CN(C)S(=O)(=O)c2cccs2)OCCCC[C@H](C)O3)cc1	0.0	i
CC(C)C#Cc1ccc([C@@H]2[C@H](CO)N3C(=O)CN(C(=O)C4CCCCC4)C[C@@H]23)cc1	-11	+
CN1[C@@H]2CN(C(=O)c3ccc(F)cc3)c3ccccc3[C@@H]2[C@@H]1CO	-0.2	i
C[C@@H]1CN([C@H](C)CO)C(=O)Cc2cc(NS(=O)(=O)c3ccc(Cl)cc3)ccc2O[C@@H]1CN(C)Cc1ccc2c(c1)OCO2	-2.7	i

# Next results.
Molecule	AF4-AF9 inh	FGF22 binding
CCCNC(=O)N1C[C@@H](O)COC[C@@H]2O[C@H](CC(=O)O)CC[C@H]21	-1.0	i
CNC[C@@H]1Oc2ccc(NC(=O)Nc3ccccc3)cc2C(=O)N([C@H](C)CO)C[C@@H]1C	1.0	i
COc1ccc(CN(C)C[C@@H]2Oc3ccc(NC(=O)Nc4ccc(C(F)(F)F)cc4)cc3C(=O)N([C@@H](C)CO)C[C@@H]2C)cc1	-2.0	i
O=C(NCC[C@@H]1CC[C@@H](NC(=O)Nc2cc(F)ccc2F)[C@H](CO)O1)Nc1ccc(Cl)cc1	11	i
CC=Cc1ccc2n(c1=O)C[C@@H]1N[C@H]2[C@H](C(=O)NC2CCCCC2)[C@H]1CO (mixture of isomers)	-2.7	i
C[C@H](CO)N1C[C@H](C)[C@@H](CN(C)C(=O)Cc2ccncc2)Oc2ncc(C#CCN(C)C)cc2C1=O	-1.0	i
COc1ccccc1NC(=O)N(C)C[C@@H]1Oc2cc(Br)ccc2S(=O)(=O)N([C@@H](C)CO)C[C@@H]1C	0.1	i
C[C@@H]1CCCCO[C@H](CN(C)C)[C@@H](C)CN([C@@H](C)CO)C(=O)c2cc(NC(=O)Nc3ccccc3)ccc2O1	-4.8	i
COc1ccc(S(=O)(=O)N(C)C[C@H]2Oc3c(NC(=O)C4CC4)cccc3C(=O)N([C@@H](C)CO)C[C@H]2C)cc1	-1.3	i
C[C@H](CO)N1C[C@H](C)[C@H](CN(C)C(=O)Cc2ccncc2)Oc2cc(C3=CCCCC3)ccc2S1(=O)=O	7.1	i

# Continuation.
Molecule	AF4-AF9 inh	FGF22 binding
CC(C)NC(=O)N(C)C[C@@H]1Oc2c(NC(=O)c3ccncc3)cccc2C(=O)N([C@H](C)CO)C[C@@H]1C	-3.2	i
Cc1ccc(S(=O)(=O)Nc2ccc3c(c2)CC(=O)N([C@H](C)CO)C[C@@H](C)[C@@H](CN(C)C)O3)cc1	-2.4	i
C[C@@H]1CN([C@H](C)CO)C(=O)c2cc(NC(=O)Nc3ccc(C(F)(F)F)cc3)ccc2O[C@@H]1CN(C)S(C)(=O)=O	0.8	i
Cc1noc(C)c1S(=O)(=O)N(C)C[C@H]1Oc2c(NC(=O)C3CC3)cccc2C(=O)N([C@H](C)CO)C[C@H]1C	-0.4	i
CS(=O)(=O)N1CC(=O)N2[C@H](CO)[C@H](c3ccc(C#CCC4CCCC4)cc3)[C@@H]2C1	0.5	i
CO[C@H](CN(C)Cc1ccc(-c2ccccn2)cc1)[C@H](C)CN(C(=O)Nc1ccc(F)cc1)[C@@H](C)CO	2.2	i
CCCc1cn(CC[C@H]2CC[C@H](NC(=O)Cc3cccnc3)[C@H](CO)O2)nn1	-0.5	i
CN(C)C(=O)c1ccc(-c2ccc([C@H]3[C@@H](C#N)N(C(=O)C4CCCCC4)[C@H]3CO)cc2)cc1	8.3	i
O=C(C[C@H]1CC[C@@H]2[C@H](COC[C@@H](O)CN2S(=O)(=O)c2ccc(F)cc2)O1)NCC1CC1	10	i
C[C@@H]1CN([C@H](C)CO)C(=O)c2cc(NC(=O)Nc3ccc4c(c3)OCO4)ccc2O[C@@H]1CN(C)Cc1ccc(-c2ccccc2)cc1	2.5	i

# Ordered by SMILES length (rising): part of the list above
Molecule	AF4-AF9 inh	FGF22 binding
CS(=O)(=O)N1CC(=O)N2[C@H](CO)[C@H](c3ccc(C#CCC4CCCC4)cc3)[C@@H]2C1	0.5	i
CN(C)C(=O)c1ccc(-c2ccc([C@H]3[C@@H](C#N)N(C(=O)C4CCCCC4)[C@H]3CO)cc2)cc1	8.3	i
CO[C@H](CN(C)Cc1ccc(-c2ccccn2)cc1)[C@H](C)CN(C(=O)Nc1ccc(F)cc1)[C@@H](C)CO	2.2	i
Cc1ccc(S(=O)(=O)Nc2ccc3c(c2)CC(=O)N([C@H](C)CO)C[C@@H](C)[C@@H](CN(C)C)O3)cc1	-2.4	i

# Continued.
Molecule	AF4-AF9 inh	FGF22 binding
COc1ccc(CN(C)C[C@@H]2OCCCC[C@@H](C)Oc3ccc(NC(=O)Nc4ccc(OC)cc4)cc3C(=O)N([C@H](C)CO)C[C@@H]2C)cc1	-1.8	i
C/C=C/c1ccc([C@H]2[C@@H](CO)N3CCCCN(C(=O)Nc4ccc(OC)cc4)C[C@H]23)cc1	7.5	i
C[C@@H]1CN([C@H](C)CO)C(=O)c2cc(NS(=O)(=O)c3ccccc3)ccc2O[C@@H]1CN(C)S(=O)(=O)c1cn(C)cn1	-2.2	i
Cc1noc(C)c1S(=O)(=O)N(C)C[C@H]1OCCCC[C@@H](C)Oc2ccc(NC(=O)Cc3ccccc3)cc2C(=O)N([C@@H](C)CO)C[C@H]1C	-2.3	i
CO[C@@H]1CN(C)C(=O)c2ccc(NC(=O)CN(C)C)cc2OC[C@@H](C)N(C(=O)c2ccncc2)C[C@H]1C	-0.7	i
C[C@@H]1CCCCO[C@@H](CN(C)S(=O)(=O)c2ccc(Cl)cc2)[C@@H](C)CN([C@@H](C)CO)C(=O)c2cc(NC(=O)c3ccccc3)ccc2O1	0.5	i
CCN(C[C@@H]1N[C@@H](CO)[C@H]1c1ccc(-c2ccccc2)cc1)C(=O)COC	0.8	i
COCC#Cc1cnc2c(c1)C(=O)N([C@H](C)CO)C[C@H](C)[C@@H](CN(C)C(=O)C1CCOCC1)O2	-3.4	i
CN1C(=O)c2cc(NC(=O)c3ccccc3Cl)ccc2OC[C@@H]2O[C@H](CC(=O)O)CC[C@H]21	-1.0	i
CN(C)c1ccc2c(c1)[C@@H]1C[C@@H](CC(=O)N3CCc4ccccc4C3)O[C@H](CO)[C@@H]1O2	2.1	i

# (further entries)
Molecule	AF4-AF9 inh	FGF22 binding
O=C(CC1CC1)N1CC2(C1)[C@H](c1ccccc1)[C@H](CO)N2C(=O)c1ccccn1	-2.3	i
C[C@@H]1CN([C@@H](C)CO)C(=O)c2cc(-c3ccccc3)cnc2O[C@H]1CN(C)C(=O)Cc1cccnc1	-0.3	i
O=C(C[C@H]1C[C@@H]2c3cc(NC(=O)C4CCOCC4)ccc3O[C@@H]2[C@@H](CO)O1)NCc1ccc(Oc2ccccc2)cc1	4.7	i
C[C@H]1CN([C@@H](C)CO)C(=O)c2cccc(NC(=O)C3CCCCC3)c2O[C@@H]1CN(C)Cc1ccc(Cl)c(Cl)c1	0.7	i
O=C(C[C@H]1CC[C@@H](NC(=O)Nc2cc(F)ccc2F)[C@H](CO)O1)NCc1ccccn1	1.4	i
Cc1ccc(S(=O)(=O)Nc2ccc3c(c2)C(=O)N(C)[C@@H]2CC[C@@H](CC(=O)NCCc4ccncc4)O[C@H]2CO3)cc1	3.1	i
C[C@H]1CN([C@@H](C)CO)C(=O)c2cccc(NS(=O)(=O)c3ccc(Cl)cc3)c2O[C@@H]1CN(C)Cc1ccncc1	-0.3	i
CCc1csc(N2[C@@H](C#N)[C@@H](c3ccc(-c4cccc(F)c4)cc3)[C@@H]2CO)n1	0.1	i
CN(C)C(=O)C[C@H]1CC[C@@H](NC(=O)NC2CCCC2)[C@@H](CO)O1	-1.3	i
CCNC(=O)C[C@@H]1CC[C@H]2[C@@H](COC[C@H](O)CN2Cc2ccc(Cl)c(Cl)c2)O1	-1.3	i
